Source: PubChem (National Center for Advancing Translational Sciences (NCATS))
LT uptake inh: anthrax lethal toxin internalization inhibition; Cells, anthrax lethal toxin internalization, FRET ratio (460/530); Potency, µM (titrated, usually from 40 µM), for the others: top-dose activity change, negative = inhibition, most hits filed as inhibitors; 70,000 compounds, 0.67% hits; AID 912; active = well fitted falling ratio curve with the 530 nm signal flat; inconclusive = other ratio curves, or a change in one channel alone; inactive = flat curves in the ratio and both channels; the % refers to the ratio; also: % is scaled to controls: 0 for no effect and ±100 for the full control effect; nearly all actives have a fitted effect of over 50% in size; tested in ME-180 cells; beta-lactamase reporter
SmPrx2 inh: inhibitors of Schistosoma mansoni peroxiredoxin 2; S. mansoni Prx2 activity coupled to TGR/GSH (TGR is thioredoxin glutathione reductase), NADPH fluorescence loss, qHTS; some inactives read as strong as hits; Potency, µM; 65,000 compounds, 0.07% hits; AID 448; active means full or partial inhibition curve with a strong effect at the top dose; inconclusive means weaker partial or single-point curve; inactive means no accepted curve; also: series up to 57 µM; many of its hits are not listed in these tables
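Prx2 inhibition was measured as reduced NADPH consumption when electrons flowed from NADPH through TGR and glutathione to Prx2 and H2O2. Plates were read kinetically over 8 min; enzyme reagents were held at 4 deg C during dispensing.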
Starred values were filed as active, the others as inactive; & = joins results of further samples; [ ] = remark or other dose. Potency is read from the fitted curve at half-maximal effect. The list is partial. The share of hits here may be higher or lower than overall.

Screening C[C@H]1CC[C@@H]2[C@@H](C)[C@H]3[C@H](C[C@H]4[C@@H]5CC=C6CC(O[C@@H]7O[C@H](CO)[C@H](O)[C@H](O[C@@H]8O[C@H](CO)[C@@H](O)[C@H](O)[C@H]8O)[C@H]7O[C@H]7O[C@@H](C)[C@H](O)[C@@H](O)[C@H]7O)CC[C@]6(C)[C@H]5CC[C@]34C)N2C1 (some centres not stated) returned LT uptake inh inconclusive.
O=C(C1Cc2ccccc2CN1S(=O)(=O)c1ccc(F)cc1)N1CCCCCC1 (configuration not stated) was read as LT uptake inh -12% and SmPrx2 inh >57.
C#CCCCO/N=C1/C[C@@H](O)[C@@H](O)[C@@H]2[C@@H]3C(=O)N(CC)C(=O)[C@H]3CC[C@H]12 was read as LT uptake inh -1%[8 µM].
`COc1ccc2c(-c3ccccc3)cc3nnnn3c2c1` gave LT uptake inh -12% and SmPrx2 inh >57.
O=C(N1CCN(CCO)CC1)N1c2ccccc2C=Cc2ccccc21 was read as LT uptake inh -3% and SmPrx2 inh >57.
CC(=O)Nc1ccc(S(=O)(=O)N(C)CC(=O)Nc2ccccc2N2CCOCC2)cc1 was read as LT uptake inh -5% and SmPrx2 inh >57.
COc1cc2c(cc1OC)-c1cc(N3CCCc4ccccc43)nc(=O)n1CC2 was read as LT uptake inh inconclusive and SmPrx2 inh >57.
For CSc1nnc(Cn2c(=O)sc3ccccc32)n1-c1ccccc1 the results were LT uptake inh -2% and SmPrx2 inh >57.
Cc1ccc(-n2nc(C(=O)NCc3ccco3)c3c4ccccc4n(C)c3c2=O)cc1 was read as LT uptake inh -18% and SmPrx2 inh >57.
For CC1=C(C(N)=O)C(c2ccccc2)n2nc(-c3cccc(C)c3)nc2N1 (configuration not stated) the results were LT uptake inh -9% and SmPrx2 inh >57.
For O=C(c1cnccn1)N(c1ccccc1)C1(C(=O)NC2CCCCC2)CCCCC1 the results were LT uptake inh 3% and SmPrx2 inh >57.
For N[C@H](Cc1ccccc1)c1nn[nH]n1 the results were LT uptake inh -10%[8 µM] and SmPrx2 inh >57.

Next section; it opens with the 5 that closed the last part.
For CSc1nnc(Cn2c(=O)sc3ccccc32)n1-c1ccccc1 the results were LT uptake inh -2% and SmPrx2 inh >57.
Cc1ccc(-n2nc(C(=O)NCc3ccco3)c3c4ccccc4n(C)c3c2=O)cc1 was read as LT uptake inh -18% and SmPrx2 inh >57.
For CC1=C(C(N)=O)C(c2ccccc2)n2nc(-c3cccc(C)c3)nc2N1 (configuration not stated) the results were LT uptake inh -9% and SmPrx2 inh >57.
For O=C(c1cnccn1)N(c1ccccc1)C1(C(=O)NC2CCCCC2)CCCCC1 the results were LT uptake inh 3% and SmPrx2 inh >57.
For N[C@H](Cc1ccccc1)c1nn[nH]n1 the results were LT uptake inh -10%[8 µM] and SmPrx2 inh >57.
Screening Cc1ccc(CCCC(=O)O)cc1C returned LT uptake inh -2%[8 µM] and SmPrx2 inh >57.
CN(C)c1ccc(NC(=S)c2ccccn2)cc1 was read as LT uptake inh inconclusive and SmPrx2 inh >57.
For Nc1ccccc1O.O.O=C(O)[C@H]1[O][Sb][O][C@H]1C(=O)O the results were LT uptake inh inconclusive and SmPrx2 inh 0.22*.
For CCOC(=O)c1c(NC(=O)CN2CCN(c3ccccn3)CC2)sc2c1CCCC2 the results were LT uptake inh -11% and SmPrx2 inh >57.
For O=C(NCCc1ccccc1)C1CCN(S(=O)(=O)c2cccc3nonc23)CC1 the results were LT uptake inh 4% and SmPrx2 inh >57.
COc1c2occc2cc2ccc(=O)oc12 was read as LT uptake inh inconclusive and SmPrx2 inh >57&>57.
For Brc1ccc(-c2nnc3sc(CNCc4ccc5c(c4)OCO5)cn23)cc1 the results were LT uptake inh -10% and SmPrx2 inh >57.
Screening CCN(CC)S(=O)(=O)c1ccc(-c2nnc(SCc3nnc(-c4ccccc4)o3)o2)cc1 returned LT uptake inh -5% and SmPrx2 inh >57.
For CC(C)CC(c1nnnn1Cc1ccccc1)N1CCN(C(=O)c2ccco2)CC1 (configuration not stated) the results were LT uptake inh -3% and SmPrx2 inh >57.
Cc1cc(N2C(=O)C3C4C=CC(C4)C3C2=O)no1 (configuration not stated) was read as LT uptake inh -1% and SmPrx2 inh >57.
Screening COc1cc2nc(SCC(=O)NC3CC3)n(CCC3=CCCCC3)c(=O)c2cc1OC returned LT uptake inh 2% and SmPrx2 inh >57.
For CCCc1cc2c(n1CCO)C(C)C1CN(C(=O)c3ccccc3)C(C)(C(=O)OC)C21 (configuration not stated) the results were LT uptake inh inconclusive and SmPrx2 inh >57.

Two compounds drawn at random from those above:
Screening Cc1ccc(CCCC(=O)O)cc1C returned LT uptake inh -2%[8 µM] and SmPrx2 inh >57.
COc1c2occc2cc2ccc(=O)oc12 was read as LT uptake inh inconclusive and SmPrx2 inh >57&>57.

(cont.)
`NC(=O)C1CCN(Cc2nnnn2Cc2ccco2)CC1` gave LT uptake inh -7% and SmPrx2 inh >57.
COc1ccc(C)cc1NC(=O)c1ccc(NC(=O)CC2SC(N3CCCC3)=NC2=O)cc1 (configuration not stated) was read as LT uptake inh -5% and SmPrx2 inh >57.
Cn1c(=O)c2c(nc(Br)n2Cc2c(F)cccc2Cl)n(C)c1=O was read as LT uptake inh -4% and SmPrx2 inh >57.
For N#CC(=C1SC=CS1)c1nc(-c2ccccc2)cs1 the results were LT uptake inh inconclusive and SmPrx2 inh >57.
CCOc1ncccc1C(=O)OCC(=O)N1CCN(S(=O)(=O)c2ccccc2)CC1 was read as LT uptake inh 0% and SmPrx2 inh >57.
For COc1ccc(NC(=O)c2c(-c3ccccc3)noc2C)c(OC)c1 the results were LT uptake inh 2%.
For Cn1c(=O)c2c(nc(CN3CCOCC3)n2CCN2CCOCC2)n(C)c1=O the results were LT uptake inh 3% and SmPrx2 inh >57.
Screening CC(C)CCNC(=O)NC(=O)CN1C(=O)NC2(CCCCC2)C1=O returned LT uptake inh 11% and SmPrx2 inh >57.
`CCn1c2ccccc2c2cc(NC(=O)CCCN3C(=O)CCC3=O)ccc21` gave LT uptake inh -13% and SmPrx2 inh >57.
Cc1cc(C)n(-c2nc3ccccc3nc2Nc2ccc(CC(=O)O)cc2)n1 was read as LT uptake inh -3% and SmPrx2 inh >57.
For CC(C)OP(=O)(c1ccc(N(C)C)cc1)C(O)c1ccccc1F (configuration not stated) the results were LT uptake inh 6% and SmPrx2 inh >57.
Screening CCN(CC)c1nc(N)c2c(N)n(-c3ccccc3C)c(=S)c(C#N)c2c1C#N returned LT uptake inh -16%.
CC(=O)N1CCC2(CCCN(Cc3cc(C(F)(F)F)cc(C(F)(F)F)c3)C2)CC1 was read as LT uptake inh inconclusive and SmPrx2 inh >57.
CCOC(=O)CCC(=O)N1CCOCCN(C(=O)CCC(=O)OCC)CCOCC1 was read as LT uptake inh inconclusive and SmPrx2 inh >57.
Cc1ccc2cc(CN(Cc3ccco3)C(=O)c3ccccc3)c(=O)[nH]c2c1C was read as LT uptake inh inconclusive and SmPrx2 inh >57.
`O=C(CC1CCCCC1)NCc1cn2ccsc2n1` gave LT uptake inh -3% and SmPrx2 inh >57.
Screening CCOC(=O)CNS(=O)(=O)CCN1C(=O)c2ccccc2C1=O returned LT uptake inh -10% and SmPrx2 inh >57.
O=C(Nc1ccc(-n2nncc2-c2ccco2)cc1)c1ccc(F)cc1 was read as LT uptake inh -7% and SmPrx2 inh >57.
CCOC(=O)c1[nH]c(COC(=O)C2CC(=O)N(Cc3ccccc3)C2)c(C(=O)OCC)c1C (configuration not stated) was read as LT uptake inh -11% and SmPrx2 inh >57.
Cn1c(=O)cc(OCC(=O)NCc2ccccn2)c2ccccc21 was read as LT uptake inh 14% and SmPrx2 inh >57.
For CC1CCCC(NC(=O)c2cn(C)c3ccc(S(=O)(=O)N4CCCC4)cc3c2=O)C1C (configuration not stated) the results were LT uptake inh -12% and SmPrx2 inh >57.
`NC(=O)c1ccc(OCC(F)(F)C(F)(F)C(F)(F)C(F)(F)C(F)(F)C(F)F)cc1` gave LT uptake inh -10% and SmPrx2 inh >57.
For Cc1ccccc1-c1nc(CN2CCCC(C(=O)NCc3cccnc3)C2)c(C)o1 (configuration not stated) the results were LT uptake inh -15% and SmPrx2 inh >57.
For CCS(=O)(=O)c1ccc2oc(SCC(=O)c3ccco3)nc2c1 the results were LT uptake inh -3% and SmPrx2 inh >57.
`Cc1occc1-c1nnc(SCC(=O)c2ccc(F)cc2)o1` gave LT uptake inh -3% and SmPrx2 inh >57.
O=C(NC1CCCCC1)NC1CCN(S(=O)(=O)c2ccc3c(c2)OCCO3)CC1 was read as LT uptake inh inconclusive and SmPrx2 inh >57.
For O=c1[nH]c(C2CCCN(S(=O)(=O)c3ccccc3)C2)nc2c1nnn2Cc1ccccc1F (configuration not stated) the results were LT uptake inh 9% and SmPrx2 inh >57.
CCc1ccc2[nH]c(=O)c(C(c3nnnn3CCOC)N3CCN(c4ccccc4)CC3)cc2c1 (configuration not stated) was read as LT uptake inh inconclusive and SmPrx2 inh >57.
For COc1ccc2[nH]c(=O)c(CN(C3CCCCC3)C(c3nnnn3Cc3ccco3)C(C)C)cc2c1 (configuration not stated) the results were LT uptake inh -21% and SmPrx2 inh >57.
`O=S(=O)(c1cccc(S(=O)(=O)N2CCN(c3ncccn3)CC2)c1)N1CCOCC1` gave LT uptake inh 4% and SmPrx2 inh >57.
`CC(=O)c1c(C)nn(CC(O)COc2ccc3c(c2)CCC3)c1C` (configuration not stated) gave LT uptake inh 4% and SmPrx2 inh >57.
NC(=O)C1CCN(c2oc(-c3ccccc3F)nc2S(=O)(=O)c2ccc(Cl)cc2)CC1 was read as LT uptake inh -14% and SmPrx2 inh >57.
`Cc1ccccc1OCCn1nc(C(=O)O)c2ccccc2c1=O` gave LT uptake inh -12% and SmPrx2 inh >57.
For COc1ccc(-n2nnc3c(=O)n(CC(=O)NCC4CCCO4)cnc32)cc1 (configuration not stated) the results were SmPrx2 inh >57.
For CCOc1ccc(N(CC(=O)NCc2ccco2)S(=O)(=O)c2ccc(OC)c(OC)c2)cc1 the results were LT uptake inh 1% and SmPrx2 inh >57.
Screening COc1ccc(Cl)cc1CSc1n[nH]c(C)n1 returned LT uptake inh 6% and SmPrx2 inh >57.
`c1ccc(-c2nn3c(-c4ccncc4)nnc3s2)nc1` gave LT uptake inh 2% and SmPrx2 inh >57.
COC(=O)CCc1c(C)c(C(=O)c2ccco2)c2ccccn12 was read as LT uptake inh 11% and SmPrx2 inh >57.
CCOc1ccccc1NC(=O)C1CCCN(S(=O)(=O)c2cccc3cccnc23)C1 (configuration not stated) was read as LT uptake inh -17% and SmPrx2 inh >57.
Screening O=C(CN1C(=O)c2ccccc2S1(=O)=O)N1CCN(c2cccc(Cl)c2)CC1 returned LT uptake inh -23% and SmPrx2 inh >57.
CN(C)c1ccc(N=NS(=O)(=O)O)cc1 was read as LT uptake inh inconclusive.
For CCCn1c(=O)c2ccccc2n2c(SCC(=O)/C(C#N)=C(\C)N)nnc12 the results were LT uptake inh -10% and SmPrx2 inh >57.
Screening CCN(CC)C(=O)CSc1nc(O)cc(=O)n1-c1ccccc1OC returned LT uptake inh -2%.
CCOC(=O)N1CCN(C(=O)C(NS(=O)(=O)c2cccc3nsnc23)c2ccccc2)CC1 (configuration not stated) was read as LT uptake inh 9% and SmPrx2 inh >57.
COc1ccc(CCNC(=O)c2sc(=S)n(C)c2N)cc1 was read as SmPrx2 inh >57.
Screening CC(=O)OC(C(=O)NCc1ccco1)c1cccnc1 (configuration not stated) returned LT uptake inh -10% and SmPrx2 inh >57.
COC(=O)c1ccc(CSc2nnc3sc4ccccc4n23)o1 was read as LT uptake inh -4% and SmPrx2 inh >57.
`Cc1cc(CNC(=O)Cc2c(F)cccc2Cl)nn1C` gave LT uptake inh 2% and SmPrx2 inh >57.
For COC(=O)c1ccccc1OC(=O)c1ccc(Br)o1 the results were LT uptake inh -2% and SmPrx2 inh >57.
Screening CN(C)C(=O)Cl returned LT uptake inh 0%.
Screening COC(=O)c1c(C)nc(C)c2c(=O)oc3ccccc3c12 returned LT uptake inh -15%.
CCCNC(=O)NC(=O)CSc1ncc(C(F)(F)F)cc1Cl was read as LT uptake inh -18% and SmPrx2 inh >57.
Screening Cc1c([C@@H](C)[C@H]2NC[C@H](C)C[C@@H]2O)ccc2c1C[C@@H]1[C@H]2CC=C2C[C@@H](O)CC[C@@]21C returned LT uptake inh 8%[8 µM] and SmPrx2 inh >57.
For Nc1c(C(=O)NCC2CCCO2)c2nc3ccccc3nc2n1-c1ccccc1 (configuration not stated) the results were LT uptake inh inconclusive and SmPrx2 inh >57.
Screening CCOC(=O)Cn1c(=O)oc2cc(S(=O)(=O)Nc3c(C)cc(C)cc3C)ccc21 returned LT uptake inh inconclusive and SmPrx2 inh >57.
O=C(CCN1CCN(CCC(=O)c2ccccc2)CC1)c1ccccc1 was read as LT uptake inh -9% and SmPrx2 inh >57.
For COc1ccc(N(Cc2cc3ccc(C)cc3[nH]c2=O)C(=O)c2ccco2)cc1 the results were LT uptake inh inconclusive and SmPrx2 inh >57.
For Cc1nc2cc(-c3ccc(F)cc3)nn2c(N2CCOCC2)c1C the results were LT uptake inh 0% and SmPrx2 inh >57.

By substructure, the entries above containing a CF3 group.
CC(=O)N1CCC2(CCCN(Cc3cc(C(F)(F)F)cc(C(F)(F)F)c3)C2)CC1 was read as LT uptake inh inconclusive and SmPrx2 inh >57.
CCCNC(=O)NC(=O)CSc1ncc(C(F)(F)F)cc1Cl was read as LT uptake inh -18% and SmPrx2 inh >57.
